Compound activity from PubChem BioAssay.
Hsc70 ATP site: Hsc70 inhibitors, probe displacement, primary screen, biochemical, fluorescence polarization (AID 568). displacement, % at 20 µM; hits with a dose series show IC50 in µM. 83,000 tested, under 10 active. Hsc70 fluorescence polarization, probe displacement; higher % means a stronger effect; strong numbers were not always called active;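 active means displacement above 50% without optical interference and an IC50 on retest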;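 further: ATPase domain with a fluorescein-tagged ATP probe; 0% = vehicle and 100% = excess ADP; read after one hour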
WNV NS2B-NS3 inh: WNV NS2B-NS3 proteinase inhibition | P06935 | WNV NS2B-NS3 protease, fluorogenic substrate Ex360/Em465; active compounds read low | z-score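 (tested at a level between 10 and 100 µM)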 | 65,000 compounds, 0.18% hits | AID 577;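 active means z-score at -3 or under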;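 further: score is relative to mean and spread of the compound wells of a plate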
Target sequence (P06935 1371-1501 limits assumed): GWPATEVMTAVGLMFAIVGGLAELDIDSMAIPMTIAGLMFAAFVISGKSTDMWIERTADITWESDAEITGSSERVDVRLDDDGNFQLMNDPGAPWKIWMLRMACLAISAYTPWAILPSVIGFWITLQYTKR
Target sequence (P06935 1502-1679 limits assumed): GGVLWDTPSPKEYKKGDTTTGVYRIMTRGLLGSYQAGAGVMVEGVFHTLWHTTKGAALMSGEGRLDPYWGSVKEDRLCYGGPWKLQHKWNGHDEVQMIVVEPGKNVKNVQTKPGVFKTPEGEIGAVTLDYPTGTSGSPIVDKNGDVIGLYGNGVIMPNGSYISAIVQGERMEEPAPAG
MT1-MMP promoter: MT1-MMP gene expression reporter suppression – cell-based, luciferase reporter, luminescence (AID 618); MT1-MMP promoter luciferase reporter cells, luminescence; calls from a first round at 10 µM; hits with a dose series show EC50 in µM; 87,000 compounds, 0.62% hits;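 active means over half of the reporter light lost at 10 µM or EC50 under 50 µM; inactive means the rest and hits that failed the dose series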;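 further: actives suppress MT1-MMP promoter-driven transcription so potencies describe inhibitors; HT1080 fibrosarcoma cells; overnight exposure; toxic or luciferase-blocking compounds were not removed from the actives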
Active calls of the source: *; i = inactive; . = not tested or not shown.

SMILES	Hsc70 ATP site	WNV NS2B-NS3 inh	MT1-MMP promoter
CCOC(=O)N1CCN(C(=O)Nc2sc3nc4n(c(=O)c3c2C)CCC(C)CC4)CC1 (stereo not given)	-2.2%	-2.3	i
CCC(CO)n1cnnc1-c1ccncc1 (stereo not given)	-3.3%	2.2	i
CCOC(=O)CSc1[nH]c(=O)cc(C)c1C#N	5.3%	.	i
COc1cc(NC(=O)Cn2c(C)cc3ccccc3c2=O)cc(OC)c1OC	0.9%	.	i
CN1CCN(C(=O)c2cc3c(s2)-c2ccccc2S(=O)(=O)C3)CC1	1.0%	0.11	i
CCn1c(NCc2ccccn2)nc2ccccc21	4.4%	.	i
CCOC(=O)c1c(CN(CC)CC)oc2ccc(OC)cc12	-7.1%	.	i
CCCc1nc2oc3cc(OC)ccc3c(=O)c2c(=O)n1Cc1ccco1	-10%	-1.2	i
CC1CC(C)CN(c2ncnc3c2cnn3-c2ccc(Cl)cc2)C1 (stereo not given)	0.1%	-0.91	i
CCOC(=O)C1CCCN(C(=O)CCC(=O)Nc2ccc3nc(N4CCOCC4)cc(C)c3c2)C1 (stereo not given)	1.9%	-0.07	i
CN(C)S(=O)(=O)c1ccc(C(=O)OCc2ccc(C#N)cc2)cc1	-0.1%	-0.49	i
CC(=O)OCC(=O)c1ccc2ccn(C(C)=O)c2c1	0.1%	-0.28	i
CC1CN(C)C(C)CC1NCc1ccc2c(c1)OCO2 (stereo not given)	1.8%	-0.28	i
CCCCCCn1c(N2CCN(c3cccc(Cl)c3)CC2)nc2c1c(=O)[nH]c(=O)n2C	-3.0%	-1.7	i
COc1ccc(-n2c(SCC(=O)Nc3nc(C)cs3)nnc2-c2ccoc2C)cc1	-2.7%	.	i
COc1cccc(C2=NOC(C(=O)NCc3ccc(F)cc3)C2)c1 (stereo not given)	-4.4%	-0.09	i
CC(C)c1ncc(C(O)c2cccc3ccccc23)n1C (stereo not given)	0.1%	-0.32	i
CCC(CC)C1C(C#N)=C(N)Oc2n[nH]c(C)c21 (stereo not given)	3.6%	0.13	i
O=C(NCCc1ccccc1)C(=O)NCC1(c2ccccc2)CCCC1	4.4%	.	i
CC(C)CSc1nc2ccccc2n1CC(N)=O	-3.5%	-0.03	i
CCOCCc1nnc(NC(=O)CSc2ccccc2)s1	4.2%	0.42	i
O=C(O)C1C2C=CC(C2)C1C(=O)N1CCc2ccccc21 (stereo not given)	-4.7%	0.24	i
O=C(CSc1nc2ccccc2o1)NCC(=O)c1ccccc1	4.6%	1.8	i
CCOC(=O)C1CCN(C2CC(=O)N(c3ccc(OCC)cc3)C2=O)CC1 (stereo not given)	-4.6%	0.13	i
COCCCNc1nc(=S)[nH]c2cc(OC)c(OC)cc12	-5.6%	0.62	i
CO/N=C(\Cn1ncc(N2CCCC2)c(Br)c1=O)c1ccc(Cl)cc1	1.6%	.	i
COc1ccc(C2C(=O)N(C3CCCCC3)CC(=O)N2C2CCCCC2)cc1 (stereo not given)	0.6%	.	i
NC(=O)CCS(=O)(=O)CCN1CCCCC1	-1.1%	-0.83	i
Brc1cccc(CN2CCCCCCC2)c1	-1.3%	.	i
CCOc1ccc(NC(=O)Cn2nnc(-c3ccccc3F)n2)cc1	8.9%	-1.1	i
O=C(Nc1cccc(O)c1)c1noc2c1CCc1ccccc1-2	-0.3%	.	i
COc1ccc(C)cc1NC(=O)CN(C)S(=O)(=O)c1cnc[nH]1	6.2%	.	i
CCN1CCCC1CNC(=O)Cn1ncc2c(=O)oc3ccc(C)cc3c21 (stereo not given)	7.3%	0.39	i
CC(=O)N1CCc2cc(S(=O)(=O)CCC(=O)N3CCN(c4ccccn4)CC3)ccc21	1.0%	1.2	i
CN(C)c1nc(N)nc(CSc2nnnn2C)n1	-3.2%	-0.0033	i
C=CCC1(O)C(=O)Nc2ccccc21 (stereo not given)	1.9%	1.2	i
Cc1cccc(OCCOC(=O)C2CCN(S(=O)(=O)c3cccs3)CC2)c1	6.1%	-0.91	i
COc1cc2c(cc1OC)C1=C(C#N)CC/C(=N\S(=O)(=O)c3ccccc3)N1CC2	-2.2%	0.67	i
CC(=O)CSc1nnc(-c2cnccn2)n1-c1ccccc1	10%	.	i
COc1cc(OC)cc(C(=O)NCCOc2ccccc2)c1	0.7%	.	i

Filtered by structure: those above containing a halogen.
SMILES	Hsc70 ATP site	WNV NS2B-NS3 inh	MT1-MMP promoter
CC1CC(C)CN(c2ncnc3c2cnn3-c2ccc(Cl)cc2)C1 (stereo not given)	0.1%	-0.91	i
CCCCCCn1c(N2CCN(c3cccc(Cl)c3)CC2)nc2c1c(=O)[nH]c(=O)n2C	-3.0%	-1.7	i
COc1cccc(C2=NOC(C(=O)NCc3ccc(F)cc3)C2)c1 (stereo not given)	-4.4%	-0.09	i
CO/N=C(\Cn1ncc(N2CCCC2)c(Br)c1=O)c1ccc(Cl)cc1	1.6%	.	i
Brc1cccc(CN2CCCCCCC2)c1	-1.3%	.	i
CCOc1ccc(NC(=O)Cn2nnc(-c3ccccc3F)n2)cc1	8.9%	-1.1	i

The listing continues.
SMILES	Hsc70 ATP site	WNV NS2B-NS3 inh	MT1-MMP promoter
O=C1c2ccccc2NC(c2ccccc2)N1c1ccc(O)cc1 (stereo not given)	0.5%	-0.09	i
CCC(C)[C@H](NC(=O)N1CCN(c2cccc(C(F)(F)F)c2)CC1)C(=O)OC (stereo not given in full)	2.2%	.	i
COc1ccccc1C(=O)NCCn1ccc2ccccc21	-9.9%	-1.2	i
COc1ccccc1OC(=O)c1ccc(SC)cc1OC	3.2%	-0.14	i
CC1CN(c2ccccc2)C(=O)CS1 (stereo not given)	3.6%	-0.74	i
O=C(CC1(O)C(=O)N(Cc2ccccc2Cl)c2ccccc21)c1ccco1 (stereo not given)	-3.7%	0.68	i
CC(=O)c1cccc(NC(=O)CSc2nnc(-c3ccc(S(=O)(=O)N4CCCC4)cc3)o2)c1	1.0%	1.2	i
COC(=O)C1=C(C)NC(=O)CC1c1ccccc1F (stereo not given)	-2.7%	-1.2	i
COC(=O)c1cccc(NC2CC(=O)N(c3ccc(OC)c(OC)c3)C2=O)c1 (stereo not given)	-3.8%	-0.17	i
CC(C)(O)C1=NOC(c2ccccc2)C1 (stereo not given)	4.7%	-0.58	i
CCOc1ccc(C(=O)NCC(=O)OCC(=O)N2C(C)CCCC2C)cc1 (stereo not given)	2.5%	.	i
COc1ccc(OC)c(N=c2oc3c(OC)cccc3cc2C(=O)NCc2ccco2)c1	7.1%	1.4	i
CCCN1CCN(CCCNC(=O)Cn2ncc3c4ccccc4n(C)c3c2=O)CC1	1.2%	1.4	i
O=C(C1CC1)N1CCc2cc(Br)cc(S(=O)(=O)N3CCOCC3)c21	1.1%	0.6	i
COc1ccc(OCC(O)COc2ccc(OC)cc2)cc1	2.7%	0.98	i
CN(C(=O)CCN1C(=O)C(C)(C)Nc2ccccc21)c1ccccc1	4.8%	0.5	i
CSCCC(NC(=O)OC(C)(C)C)C(=O)NC(CC(C)C)C(N)=O (stereo not given)	3.7%	-0.39	i
CCCC12CN3CC(C)(CN(C1)C3c1ccc(OC)cc1)C2=O (stereo not given)	-4.3%	1.3	i
COc1cccc(-c2nc3n(n2)C(c2ccc4c(c2)OCO4)C(C(N)=O)=C(C)N3)c1 (stereo not given)	-0.2%	-1	i
CN1CC(=O)N(CC(=O)NCCc2ccc(F)cc2)c2ccccc2C1=O	2.9%	0.56	i

At a glance, part of the list above.
SMILES	Hsc70 ATP site	WNV NS2B-NS3 inh	MT1-MMP promoter
CN(C(=O)CCN1C(=O)C(C)(C)Nc2ccccc21)c1ccccc1	4.8%	0.5	i
CSCCC(NC(=O)OC(C)(C)C)C(=O)NC(CC(C)C)C(N)=O (stereo not given)	3.7%	-0.39	i
CCCC12CN3CC(C)(CN(C1)C3c1ccc(OC)cc1)C2=O (stereo not given)	-4.3%	1.3	i
COc1cccc(-c2nc3n(n2)C(c2ccc4c(c2)OCO4)C(C(N)=O)=C(C)N3)c1 (stereo not given)	-0.2%	-1	i
CN1CC(=O)N(CC(=O)NCCc2ccc(F)cc2)c2ccccc2C1=O	2.9%	0.56	i

Going on with the list.
SMILES	Hsc70 ATP site	WNV NS2B-NS3 inh	MT1-MMP promoter
Oc1ccc(Br)cc1-c1nc2cnccn2c1NC1CCCCC1	1.6%	.	i
Cc1ccc(S(=O)(=O)NCCCCCC(=O)Nc2nccs2)cc1	1.2%	-0.22	i
O=C(c1ccc(Cl)cc1)C1CCN(C(=O)C2CC2)CC1	-1.2%	.	i
CCOC(=O)c1sc(NC(=O)CSc2nnc(C(C)C)n2C)nc1C	1.5%	.	i
COc1cccc(C(=O)Nc2ccc(S(=O)(=O)Nc3onc(C)c3C)cc2)c1	3.9%	2.5	i
Cc1ccccc1-n1c(SCc2c(C)noc2C)nnc1-c1c[nH]c2ccccc12	4.7%	-0.04	i
CC1(C)CC(=O)C2=C(C1)Nc1ccccc1NC2c1ccc2c(c1)OCO2 (stereo not given)	4.6%	-1.1	i
CC1=CC(C)(C)N2C(=O)C3(C(C#N)=C(N)OC4=C3C(=O)CC(C)(C)C4)c3cccc1c32 (stereo not given)	8.3%	1.8	i
Cc1nc2ncnn2c(C)c1Cc1ccc(Cl)cc1F	2.9%	0.29	i
Cc1ccc(N(CC(=O)Nc2ccc3c(c2)OCCO3)S(=O)(=O)c2c(C)n[nH]c2C)cc1	-3.8%	0.29	i
O=C(Nc1ccc(Cc2ccncc2)cc1)C1CC1	-0.1%	-0.84	i
COc1nonc1NC(=O)CSc1nc2ccccc2[nH]1	-3.6%	0.87	i
CCN(CC)CCCNC(=O)c1cc(-c2cccc(Cl)c2)on1	-6.9%	0.2	i
CCn1c(SCC(=O)Nc2sc3c(c2C(N)=O)CCC(C)C3)nnc1-c1ccco1 (stereo not given)	-7.8%	.	i
CCN(CC)C(=O)C(=O)c1cccn1-c1cccc(-n2cccc2C(=O)C(=O)N(CC)CC)c1C#N	3.1%	.	i
CCCN(C(=O)c1cccs1)c1nnc(-c2ccncc2)s1	1.7%	2.6	i
Cc1ccnc(Nc2nc3ccccc3o2)n1	1.9%	-1.6	13µM*
COc1ccc(CC(=O)Nc2ccc(S(=O)(=O)Nc3nc(C)cc(C)n3)cc2)cc1	-3.1%	.	i
COc1ccc2c(c1)Cc1sc(NC(=O)c3ccccc3)nc1-2	-0.2%	.	i
CC1=CC(C)C2C(=O)N(CCCN(C)C)C(=O)C2C1 (stereo not given)	-2.2%	-0.61	i
O=S(=O)(c1ccc(Oc2ncnc3scc(-c4ccccc4)c23)cc1)N1CCOCC1	-12%	-0.22	i
COc1ccc2nc(Nc3ccc4c(c3)OCO4)sc2c1	-2.0%	-0.92	i
CC(C)C(=O)N1c2ccccc2NC2=C(C(=O)CCC2)C1c1ccc(N(C)C)cc1 (stereo not given)	-3.0%	-0.97	i
O=C(Nc1ccccc1C(=O)OCC(=O)N1CCc2ccccc2C1)c1ccco1	-6.7%	-1.2	i
CC1CCOC2(O1)C(=O)N(CN1CCN(c3ccccc3F)CC1)c1ccccc12 (stereo not given)	-4.3%	0.29	i
CCOC(=O)c1[nH]c(C)c(CN(CCc2ccc(OC)c(OC)c2)C(=O)CCCC(=O)O)c1C	-15%	-1.3	i
O=C1c2ccccc2C(=O)N1CCOCCN1C(=O)c2ccccc2C1=O	1.3%	0.34	i
O=C(NCc1cccs1)c1nc2ncccn2n1	-1.2%	-0.08	i
COc1ccc(-c2cc(C(=O)N3CCOCC3)c3cc(C)ccc3n2)cc1	0.1%	2.8	i
CC(C)(C)NC(=O)CN(C(=O)CNS(=O)(=O)c1ccccc1)c1ccc2c(c1)OCCO2	2.7%	.	i
O=C(Nc1ccccc1N1CCCCC1)c1ncoc1-c1ccc(F)cc1	-2.8%	-0.17	i
CN1C(=O)CC(N2CCC(c3nc4ccccc4[nH]3)CC2)C1=O (stereo not given)	9.9%	0.67	i
C=CCn1c(COc2cccc(C)c2)nnc1SCC(=O)NC(=O)NCc1ccco1	6.2%	-0.81	i
CC1CCCCN1c1nnc(N)s1 (stereo not given)	-3.0%	-0.38	i
O=C(NCc1cccnc1)C1CCN(S(=O)(=O)c2cccs2)CC1	1.6%	1.3	i
CC1(C)Cc2cccc(OCC(=O)Nc3cccnc3)c2O1	7.8%	-0.82	i
COc1ccc(/C=C/c2ccncc2)cc1OC	0.4%	.	i
Fc1ccc(CSc2nnc(Cc3sc(-c4ccccc4)nc3-c3ccccc3)o2)cc1	2.6%	.	i
COC(=O)c1sccc1NC(=O)C1CC=CCC1C(=O)O (stereo not given)	7.2%	-0.51	i
Nc1nonc1C(=O)OCC(=O)N1CCOCC1	6.1%	-1.1	i
CCCn1c(=N)n(CC(=O)OCC)c2ccccc21	-2.0%	0.24	i
O=C(Cn1c(=O)oc2cc(S(=O)(=O)N3CCCC3)ccc21)Nc1cccc(C(F)(F)F)c1	2.1%	-0.72	i
Cn1c(=O)c2c(nc(N3CCN(c4ccccc4)CC3)n2CCCc2ccccc2)n(C)c1=O	-0.9%	0.68	i
O=S(=O)(Nc1ccc2nc(-c3ccc(Br)o3)[nH]c2c1)c1ccccc1	-3.4%	-1.3	i
O=C(Oc1cccc(-c2cnc3ccccc3n2)c1)c1ccco1	-4.9%	.	i
O=S(=O)(c1cccc(C(F)(F)F)c1)N(CCCN1CCOCC1)Cc1cccs1	2.0%	0.83	i
CC(C)Oc1ccc(-c2nn(-c3ccccc3)cc2/C=c2\sc3ncnn3c2=O)cc1	28%	0.77	i
CCOC(=O)c1[nH]c2ccc(Cl)cc2c1-c1ccccc1	4.6%	.	i
